Bioassay records: PubChem BioAssay, Center for Chemical Genomics, University of Michigan
CDC25B CDK2 inh = human CDC25B-CDK2/CyclinA binding inhibition | HTRF CDC25B-CDK2/CyclinA binding, anti-His/anti-Flag; hits give high values | z-score (concentration not given with the values) | 94,000 tested, 0.72% active;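 further: score is relative to mean and SD of negative controls; strong numbers were not always called active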
HIV TAR-Tat = HIV-1 TAR-Tat binding disruption. HIV-1 TAR RNA, Tat peptide displacement FRET; hits give high values. z-score (concentration not given with the values). 100,000 tested, 0.6% active. AID 1259389;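 further: score is relative to mean and SD of negative controls; some compounds called inactive have numbers as strong as hits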
The depositor's hits bear a star; . = no result given.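 How the source made its calls: active means z-score from 3 up in half or more of its runs; inactive means the rest.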 Rows are unselected; any-hit rate near 0.94%.

nr	Structure	HIV TAR-Tat	CDC25B CDK2 inh
1	Cc1nn(-c2ccccc2)c2c1C(c1ccc(O)c(O)c1)C1=C(CC(c3ccc(O)cc3)CC1=O)N2 (configuration not stated)	1.8	-1.9
2	CCCc1nn2c(=O)cc(CSCC(=O)Nc3ccccc3)nc2s1	0.15	.
3	COc1cc(OC)c(NC(=O)c2cc3ccc4cccnc4c3[nH]2)cc1Cl	1.5	.
4	Cc1cc(C)c2oc(-c3cccc(N)c3)nc2c1	1.1	-1.1
5	O=C1c2nc3ccccc3c(C(=O)N3CCCCC3c3cccnc3)c2CN1C1CCCCC1 (configuration not stated)	0.03	.
6	Cc1nc2ccc(N3NOC=C3O)cc2s1	0.29	-1.2
7	Cc1ccc(C)c2[nH]c(=O)c(CCNC(=O)C34CC5CC(CC(C5)C3)C4)cc12	.	-1.7
8	O=S(=O)(Cc1nnc(-c2cc(Cl)cc(Cl)c2)o1)c1ccc(Cl)cc1	.	-0.49
9	Cc1ccc2nc(NCc3ccccc3Cl)c3nncn3c2c1	-0.44	-2.1
10	O=C(O)c1ccccc1S(=O)(=O)Cc1ccccc1	0.96	0.22
11	c1ccc2c3c([nH]c2c1)-c1nonc1CC3	.	-3.5
12	CC(=O)N1CCOc2cc(S(=O)(=O)NCCN(C)C)c(Cl)cc21	2	.
13	O=S(=O)(c1cc(-c2noc(C3CC3)n2)cs1)N1CCN(c2ccccn2)CC1	1.2	.
14	CCOc1ccccc1N1CC(O)=C(c2nc3ccccc3n2C)C1=N	0.53	-1.8
15	CCOc1cc(/C=c2/sc3nc4cc(C)c(C)cc4n3c2=O)ccc1OCc1ccc(Cl)cc1Cl	.	-1.6
16	Cc1ccc(NC(=O)Nc2c(C)noc2-c2cccs2)cc1	.	-1.8
17	Cc1nn(-c2ccccc2Cl)c2nc(-c3ccncc3)cc(C(F)(F)F)c12	0.02	0.61
18	Cc1cc(C)c2oc(C(=O)NCC(c3ccco3)N(C)C)cc(=O)c2c1 (configuration not stated)	0.86	-1.7
19	CCCCN(C)c1nnc(NC(=O)Nc2ccccc2Br)s1	2.1	2.6
20	COC(=O)c1ccsc1N1C(=O)C=C(C)C1=O	.	-1.6

Part of the list above in order of length of the SMILES, ascending.
nr	Structure	HIV TAR-Tat	CDC25B CDK2 inh
6	Cc1nc2ccc(N3NOC=C3O)cc2s1	0.29	-1.2
19	CCCCN(C)c1nnc(NC(=O)Nc2ccccc2Br)s1	2.1	2.6
2	CCCc1nn2c(=O)cc(CSCC(=O)Nc3ccccc3)nc2s1	0.15	.
14	CCOc1ccccc1N1CC(O)=C(c2nc3ccccc3n2C)C1=N	0.53	-1.8
17	Cc1nn(-c2ccccc2Cl)c2nc(-c3ccncc3)cc(C(F)(F)F)c12	0.02	0.61
5	O=C1c2nc3ccccc3c(C(=O)N3CCCCC3c3cccnc3)c2CN1C1CCCCC1 (configuration not stated)	0.03	.
15	CCOc1cc(/C=c2/sc3nc4cc(C)c(C)cc4n3c2=O)ccc1OCc1ccc(Cl)cc1Cl	.	-1.6

More compounds follow.
nr	Structure	HIV TAR-Tat	CDC25B CDK2 inh
21	COc1ccc2nc(N(CCN(C)C)C(=O)C3CCCCC3)sc2c1	1.3	.
22	COC(=O)c1sccc1NC(=O)C1CCCN(c2ncnc3c2nc2n3CCCCC2)C1 (configuration not stated)	-0.59	.
23	CCC(C)N1CCN(S(=O)(=O)c2ccc3c(c2)NC(=O)CS3)CC1 (configuration not stated)	2.6	.
24	c1ccc(-c2nc3c4ccccc4nc(N4CCOCC4)n3n2)cc1	2.2	-1.4
25	O=c1c(S(=O)(=O)c2cccc(F)c2)c[nH]c2cc(F)ccc12	-0.32	-0.43
26	CCOc1cc(C)c(C(C)C)cc1S(=O)(=O)n1cnc(C)c1	0.12	-0.81
27	O=C(Nc1ccccc1C(=O)NC1CCS(=O)(=O)C1)C1=CSCCO1 (configuration not stated)	-0.28	.
28	CCOc1cc(-c2nc(-c3ccccn3)no2)cc(OCC)c1OCC	.	-1.2
29	O=C(Nc1ccc(Cl)cc1)c1csc([N+](=O)[O-])c1	.	-0.28
30	COc1ccc(OC)c([N+](=O)[O-])c1N1CCOCC1	.	0.15
31	Cc1ccc(S(=O)(=O)N2CCCC(c3nc(-c4ccccc4Cl)no3)C2)cc1 (configuration not stated)	2.6	.
32	Cc1cc2c(cc1Cl)N(C(=O)Nc1ccnc3ccccc13)CC2	.	1.6
33	COc1ccc(CC(=O)Cn2c(SCc3ccc(F)cc3)nc3ccncc32)c(OC)c1	0.05	-1.2
34	Cn1c(=O)c2c(nc(NCc3ccccc3)n2Cc2ccccc2)n(C)c1=O	0.82	1.1
35	CC(C)(C)OC(=O)N1CCN(CCNC(=O)c2ccccc2)CC1	.	-1.6
36	Cn1c(=O)c2c(ncn2CC(=O)NC(C)(C)C)n(C)c1=O	0.78	-1.1
37	O=C1CC(Sc2ncn[nH]2)C(=O)N1c1ccc(-c2ccccc2)cc1 (configuration not stated)	1	0.18
38	COc1ccc(C(=O)Nc2cnc3sc4cc(F)ccc4n3c2=O)cc1OC	0.34	0.79
39	Cc1nc2sc(C(c3cccs3)N3CCN(c4ccccc4)CC3)c(O)n2n1 (configuration not stated)	.	-1.6
40	CCOc1ccc(CCn2c(C)c(C)c3c2ncn2nc(C)nc32)cc1OCC	0.65	-1.5
41	Cc1nn(-c2ccc(N3CCCC3)nn2)c(C)c1CCC(=O)NCCN1CCOCC1	-0.57	.
42	CCc1cc(Nc2ccc(C)c(F)c2)n2ncnc2n1	0.43	-0.56
43	COc1cc(OC)cc(-c2nc3n(n2)C(c2ccc(Cl)cc2)C2=C(CCCC2=O)N3)c1 (configuration not stated)	-0.12	-0.47
44	OC[C@H](Cc1ccccc1)Nc1nc(Oc2ccc3c(c2)CCC3)nc2c1ncn2Cc1ccc(-c2ccccc2)cc1	1.1	.
45	CCn1c(SCCO)nc2c(c1=O)C1(CCCC1)Cc1ccccc1-2	-0.23	0.29
46	CC(C)c1nn2c(=O)cc(CSc3nnc(-c4ccc(Cl)cc4)o3)nc2s1	1.3	-1.7
47	COCCN1C(=O)c2oc3ccc(C)cc3c(=O)c2C12C(=O)N(C)c1ccccc12 (configuration not stated)	0.92	-0.95
48	Cc1ccc(C)c(Nc2nc3ccccc3n3nnnc23)c1	-1.8	-2.8
49	COc1nc(C)ccc1-c1noc(-c2ccc(C)cc2)n1	0.43	0.97
50	Nc1nonc1C(=O)N1CCN(C(=O)c2ccccc2)CC1	1.8	-0.74
51	O=C(Nc1ccc(C(F)(F)F)cc1)c1ccc2c(c1)CCO2	.	-0.46
52	CCOC(=O)N1CCC(N/C=C(\C#N)S(=O)(=O)c2ccc(Cl)cc2)CC1	.	-1.3
53	COC(=O)c1csc2c(C(F)(F)F)cc(N3CCN(C(=O)c4ccco4)CC3)nc12	.	1.1
54	CS(=O)(=O)N1CCc2cc(C(=O)NC(c3ccccc3)c3ccccc3)ccc21	0.8	-0.51
55	CCOCCCNC(=O)Nc1ccc2nc3n(c(=O)c2c1)CCCC3	1.2	0.71
56	O=[N+]([O-])c1ccc(N2CCCC2)nc1	.	-1.1
57	COc1cc(CNc2nc3ccccc3n2Cc2ccccc2)ccc1O	-1.2	-1.6
58	Cn1nc(-c2ccc(C=N/C(C#N)=C(\N)C#N)s2)cc1C(F)(F)F	.	0.71
59	O=C1C(=O)N(CN2CCN(CN3C(=O)C(=O)c4ccccc43)C2)c2ccccc21	.	-2.2
60	COc1ccc(N(C)C(=O)Nc2cn(C)c(=O)c3ccccc23)c(OC)c1	0.83	.
61	CC(C)Cn1cc(NC(=O)N(C)Cc2ccco2)c2ccccc2c1=O	0.56	.
62	O/N=C/C1=C(Cl)c2ccccc2CC1	.	-1.4
63	CC1(C)CC(=O)c2cc(-c3nc(-c4ccc(Cl)cc4)cs3)c(=O)[nH]c2C1	-0.52	-5.1
64	Cc1c(C=Nc2ccc([N+](=O)[O-])cc2)sc2ccccc12	.	-1
65	CSc1c(C#N)c(-c2ccccc2)nn1CC(=O)NN	.	-0.89
66	CCOC(=O)c1cnn(C)c1NC(=O)C(Cl)Cl	.	-1.1
67	Cc1occc1-c1nnc(SCC(=O)N2CCCc3ccccc32)o1	1.1	-0.47
68	CC(C)c1nnc(N2C(=O)c3oc4ccccc4c(=O)c3C2c2cccc(Cl)c2)s1 (configuration not stated)	2	0.65
69	CCCOc1ccc(OCCSc2nc3ccccc3[nH]2)cc1	1.1	-0.17
70	CC(C)Cc1nnc(SCc2cc(=O)c3cc(F)ccc3[nH]2)n1C	1.1	.
71	Cc1ccc(NS(=O)(=O)c2ccc3c(c2)C(C)(C)C(=O)N3C)c(C)c1	1.3	.
72	CCC(C)n1[nH]c(=O)c2c(C)cc(=O)[nH]c21 (configuration not stated)	1.7	-0.64
73	COc1cc2c(cc1OC)C(C(CCC(C)C)C(N)=O)=NC(C)(C)C2 (configuration not stated)	.	-1.1
74	COc1ccc(OC)c(C(=O)c2ccc(NC(=O)c3ccc(Cl)c(Cl)c3)cc2)c1	.	-1.5
75	O=C(Nc1ccc2c(c1)OCCO2)c1cccnc1Sc1ccccc1	.	-1
76	Nc1ccccc1C(O)(Cc1ccccc1)c1ccccc1 (configuration not stated)	.	0.14
77	c1cncc(-c2nc3c4ccccc4nc(NCCCN4CCCCCC4)n3n2)c1	.	1.8
78	CCNC(=O)NC(=O)c1csc([N+](=O)[O-])c1	.	-2.1
79	CCCCOc1nc2c(c(=O)n(C)c(=O)n2C)n1Cc1ccc(Br)cc1	.	-0.93
80	CCc1ccc(CN(C(=O)c2cc(-c3cccs3)on2)C2CCS(=O)(=O)C2)cc1 (configuration not stated)	1.8	-1.8

2 compounds picked at random from the list so far:
nr	Structure	HIV TAR-Tat	CDC25B CDK2 inh
67	Cc1occc1-c1nnc(SCC(=O)N2CCCc3ccccc32)o1	1.1	-0.47
79	CCCCOc1nc2c(c(=O)n(C)c(=O)n2C)n1Cc1ccc(Br)cc1	.	-0.93

(listing goes on)
nr	Structure	HIV TAR-Tat	CDC25B CDK2 inh
81	CCN(CC)S(=O)(=O)c1ccc2c(c1)NC(=O)C(C)CS2 (configuration not stated)	2.1	.
82	O=C(CCS(=O)(=O)c1cc2c(cc1Cl)NC(=O)CO2)NCC1CCCO1 (configuration not stated)	2.6	.
83	Cc1ccc(Cl)cc1NC(=O)N1CCCC1c1ccco1 (configuration not stated)	1.9	-2.3
84	COc1ccc(OCCCn2c(C3CC(=O)N(c4cccc(SC)c4)C3)nc3ccccc32)cc1 (configuration not stated)	-0.13	0.06
85	CCn1nc(C)c(CNC(=O)Nc2ccc(F)cc2F)c1C	-0.31	.
86	Cn1c(N2CCCCC2)nc2c1c(=O)n(Cc1ccc(F)cc1)c(=O)n2C	.	-1.4
87	CSc1ccc(C(=O)Nc2nc(-c3nc4ccccc4s3)cs2)cc1	0.63	.
88	Cc1nnc2c(NCc3ccccc3Cl)nc3ccccc3n12	1.8	-0.28
89	Cc1ccc(NS(=O)(=O)c2ccc(CN3C(=O)c4cccnc4C3=O)s2)cc1C	1.2	.
90	CCOC(=O)C1CCN(c2nc3cc(Br)ccc3s2)CC1	1.2	.
91	CCn1c(=O)c(S(=O)(=O)c2ccccc2)c(O)c2ccccc21	1.6	0.12
92	CCCSc1ncc(Cl)c(C(=O)N(Cc2ccc(Cl)cc2)C2CCS(=O)(=O)C2)n1 (configuration not stated)	1.3	2
93	CCN(CC)CCNC(=O)c1sc2nc3n(c(=O)c2c1C)CCCC3	0.9	.
94	O=c1cc(-c2cccnc2)[nH]c2nc3ccccc3n12	-0.45	-0.7
95	COc1ccc(CN2N=NC3C(=O)N(c4ccc(OC)cc4)C(=O)C32)cc1 (configuration not stated)	1.3	0.64
96	COCc1cc(C)nc2sc3c(=O)n(-c4cc(OC)ccc4OC)nnc3c12	2.3	-0.46
97	CC(C)(c1ccccc1)c1ccc(O)c(CN2CCOCC2)c1	1.6	-0.6
98	CC(C)NC(=O)c1sc(=S)n2c1[nH]c(=O)c1ccc(C(=O)NC(C)CCc3ccccc3)cc12 (configuration not stated)	-0.64	.
99	CCCCN(CC)C(=O)Cn1c(=O)oc2ccccc21	-0.91	.
100	CS/C(Nc1cccnc1)=C(/C#N)c1ccccn1	.	-1.4
101	CCOc1ccc(C2CC(=O)c3c([nH]c(C(=O)OCCSCC)c3C)C2)cc1 (configuration not stated)	7.9	-2
102	CCOC(=O)Cn1nc([N+](=O)[O-])cc1C	0.61	.
103	CC1=C(C(=O)OCCc2ccccc2)C(c2ccc(Br)cc2)C2=C(CCCC2=O)N1 (configuration not stated)	-0.15	-0.8
104	Cc1nnc2c(Nc3cccc(C(=O)O)c3)nc3ccc(C(=O)c4ccccc4)cc3n12	0.66	.
105	CCC(=O)N1c2ccccc2NC2=C(C(=O)CC(C)(C)C2)C1c1ccc(C#N)cc1 (configuration not stated)	.	0.42
106	CC(C)Cn1c(=O)c2ccc(C(=O)NC3CCCC3)cc2n2c(=O)[nH]nc12	1.4	0.2
107	CCOC(=O)c1c(C)[nH]c(C)c1S(=O)(=O)Nc1ccc(C)cn1	0.18	.
108	O=C(NCc1ccco1)C1CCN(c2nccc(C(F)(F)F)n2)CC1	.	-0.9
109	CC1=CC(C)(C)Nc2ccc(OC(=O)c3sc4cc([N+](=O)[O-])ccc4c3Cl)cc21	.	-3.1
110	CCc1nn(CC(=O)NCc2cccs2)c(=O)c2cc3sc(C)cc3n12	0.49	-6.7
111	CCOC(=O)c1cc(-c2ccc(S(=O)(=O)N(C)C3CCCCC3)s2)on1	-0.79	.
112	O=C1[C@H](CC[C@H](O)c2ccc(F)cc2)[C@@H](c2ccc(O)cc2)N1c1ccc(F)cc1	1	.
113	COc1ccc(C2C(=O)N(C3CCCCCC3)CC(=O)N2C2CCCCC2)cc1OC (configuration not stated)	.	-2.9
114	Cc1ccc(CNC(=O)c2noc(C)c2CN2CCOCC2)o1	-0.33	.
115	Cc1ccc(Nc2nc(N3CCC(C)CC3)nc3c2cnn3C)cc1	0.21	.
